Env fusion inh = inhibitors of HIV Env-mediated cell fusion; actives 1.1% (n = 360,000); inhibition, % at 12.3 µM; HeLa-JRFL Env/CEM21 cell fusion, luciferase;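 active = mean replicate inhibition score of at least 50 and every replicate individually at or above 50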;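 note: 0% = plate neutral controls and 100% = maraviroc near 300 nM; one replicate is shown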
Yeast UUG start = alters start codon recognition fidelity in yeast | S. cerevisiae UUG-firefly luciferase reporter, luminescence/redox ratio | activity score, % at 18.7 µM | actives 0.13% (n = 350,000) | AID 602363;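 active = replicate mean at a twofold rise or more, about +100% in these data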;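 note: firefly luciferase made from a UUG start codon reports start codon fidelity; reporter light over untreated wells divided by growth signal over untreated wells; some hits fall short of that in this replicate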
An asterisk follows results filed as active; [ ] = dose if it differs, or a comment. Only part of the results is shown. The share of hits here may be higher or lower than overall.

Env fusion inh	Yeast UUG start	SMILES
8[16.7 µM]	-2	CNC[C@@H]1OCCCC[C@@H](C)Oc2ccc(NS(C)(=O)=O)cc2C(=O)N([C@@H](C)CO)C[C@@H]1C
21[16.7 µM]	-7	C[C@@H]1CN([C@H](C)CO)C(=O)c2cc(C3=CCCCC3)cnc2O[C@H]1CN(C)CC1CCOCC1
-9[16.7 µM]	-13	C[C@H](CO)N1C[C@H](C)[C@H](CN(C)Cc2ccc(-c3ccccc3)cc2)Oc2ccc(NC(=O)Nc3ccc4c(c3)OCO4)cc2C1=O
10[16.7 µM]	5	Cc1cccc(S(=O)(=O)N[C@H]2CC[C@@H](CCNC(=O)Nc3cc(F)ccc3F)O[C@H]2CO)c1
39[16.7 µM]	8	C/C=C/[C@@H](CC(=O)N1Cc2ccccc2C[C@H]1CO)[Si](C)(C)c1ccc(OC)cc1
-12[16.7 µM]	-8	C[C@H](CO)N1C[C@H](C)[C@H](CN(C)Cc2ccc(C(=O)Nc3ccccc3N)cc2)Oc2c(NC(=O)c3ccncc3)cccc2C1=O
-8[16.7 µM]	-11	CC(C)NC(=O)N(C)C[C@@H]1Oc2cc(-c3ccccc3)ccc2S(=O)(=O)N([C@H](C)CO)C[C@H]1C
-51[16.7 µM]	2	COc1ccc(S(=O)(=O)N(C)C[C@H]2OCCCC[C@H](C)Oc3ccc(NS(=O)(=O)c4ccc(C)cc4)cc3C(=O)N([C@H](C)CO)C[C@@H]2C)cc1
-11[16.7 µM]	4	C[C@H]1CN([C@@H](C)CO)C(=O)Cc2cc(NC(=O)CCC(F)(F)F)ccc2O[C@H]1CN(C)C(=O)Nc1ccc2c(c1)OCO2
-15[16.7 µM]	-8	COCC(=O)Nc1ccc2c(c1)C(=O)N(C)[C@H]1CC[C@H](CC(=O)OC)O[C@H]1CO2
20[16.7 µM]	-13	O=S(=O)(c1cccc2cccnc12)N1CCN(Cc2ccc(OCCO)cc2)CC1
4[16.7 µM]	1	CCCN(C)C[C@H]1Oc2cc(-c3ccc(F)cc3)ccc2S(=O)(=O)N([C@H](C)CO)C[C@H]1C
-9[16.7 µM]	-4	COc1ccc(S(=O)(=O)N(C)C[C@@H]2OCCCC[C@@H](C)Oc3ccc(NC(=O)Nc4cccc5ccccc45)cc3C(=O)N([C@@H](C)CO)C[C@@H]2C)cc1
6[16.7 µM]	2	O=C(C[C@H]1CC[C@@H](NC(=O)NC2CCCCC2)[C@H](CO)O1)NCc1ccc(Cl)cc1
-7[16.7 µM]	-9	O=S(=O)(N[C@@H]1CC[C@@H](CCn2cc(C3(O)CCCC3)nn2)O[C@@H]1CO)c1ccc(F)cc1
0[16.7 µM]	-7	Cc1noc(C)c1NC(=O)Nc1ccc2c(c1)C(=O)N([C@H](C)CO)C[C@@H](C)[C@@H](CN(C)CC1CCCCC1)O2
-8[16.7 µM]	-9	COCC#Cc1cnc2c(c1)C(=O)N([C@H](C)CO)C[C@@H](C)[C@@H](CN(C)C(=O)c1cnccn1)O2
-2[16.7 µM]	-1	CN1CCN(C(=O)C[C@H]2CC[C@H](NC(=O)Cc3ccccn3)[C@H](CO)O2)CC1
42[16.7 µM]	7	C[C@@H]1CCCCO[C@@H](CN(C)CC2CCCCC2)[C@@H](C)CN([C@@H](C)CO)C(=O)c2cc(NC(=O)Nc3ccc(C(F)(F)F)cc3)ccc2O1
28[16.7 µM]	1	CC(C)CC#Cc1ccc2c(c1)O[C@H](CN(C)Cc1ccc3c(c1)OCO3)[C@H](C)CN([C@@H](C)CO)S2(=O)=O
-6[16.7 µM]	-11	CNC(=O)C1=C[C@H](c2ccc(C(=O)OC)cc2)C[C@H](OCc2ccc(CO)cc2)O1
12[16.7 µM]	9	COCC#Cc1cnc2c(c1)C(=O)N([C@@H](C)CO)C[C@H](C)[C@H](CN(C)Cc1ccccc1F)O2
10[16.7 µM]	13	COc1ccc(-c2cnc3c(c2)C(=O)N([C@H](C)CO)C[C@@H](C)[C@@H](CN(C)C(=O)C2CCOCC2)O3)cc1
-6[16.7 µM]	0	CO[C@H]1CN(C)C(=O)c2ccc(NC(=O)c3cccc(F)c3)cc2OC[C@@H](C)NC[C@H]1C
-3[16.7 µM]	1	CO[C@@H]1CN(C)C(=O)c2cc(NS(=O)(=O)c3ccc(F)cc3)ccc2OC[C@H](C)NC[C@H]1C

Single records (already shown):
`CNC(=O)C1=C[C@H](c2ccc(C(=O)OC)cc2)C[C@H](OCc2ccc(CO)cc2)O1` across the screens: Env fusion inh = -6[16.7 µM]; Yeast UUG start = -11
`COCC#Cc1cnc2c(c1)C(=O)N([C@H](C)CO)C[C@@H](C)[C@@H](CN(C)C(=O)c1cnccn1)O2` across the screens: Env fusion inh = -8[16.7 µM]; Yeast UUG start = -9

The listing continues.
Env fusion inh	Yeast UUG start	SMILES
-11[16.7 µM]	1	CN(C)C(=O)C[C@@H]1CC[C@H]2[C@H](COc3ccc(NC(=O)c4cnccn4)cc3C(=O)N2C)O1
-6[16.7 µM]	3	Cc1ccc(S(=O)(=O)Nc2ccc3c(c2)C(=O)N([C@H](C)CO)C[C@H](C)[C@H](CN(C)C(=O)c2ccncc2)OCCCC[C@H](C)O3)cc1
-17[16.7 µM]	25	CC(=O)N(C)C[C@H]1Oc2cc(C#CC3CCCCC3)ccc2S(=O)(=O)N([C@@H](C)CO)C[C@H]1C
-52[16.7 µM]	7	Cc1ccc(S(=O)(=O)N(C)C[C@@H]2OCCCC[C@H](C)Oc3ccc(NC(=O)CCC(F)(F)F)cc3C(=O)N([C@H](C)CO)C[C@@H]2C)cc1
-18[16.7 µM]	16	COc1ccc(NC(=O)N(C)C[C@@H]2Oc3ccc(NS(=O)(=O)c4ccc(Cl)cc4)cc3CC(=O)N([C@@H](C)CO)C[C@H]2C)cc1
8[16.7 µM]	4	O=C(C[C@H]1CC[C@H](NS(=O)(=O)c2ccccc2)[C@@H](CO)O1)NCc1ccccc1F
4[16.7 µM]	8	O=C(NCC[C@H]1CC[C@H](NS(=O)(=O)Cc2ccccc2)[C@@H](CO)O1)C1CCCC1
5[16.7 µM]	11	COc1ccc(NC(=O)N(C)C[C@@H]2OCCCC[C@H](C)Oc3ccc(N(C)C)cc3C(=O)N([C@H](C)CO)C[C@H]2C)cc1
4[16.7 µM]	-12	CC(C)CC#Cc1ccc2c(c1)O[C@@H](CN(C)Cc1cccnc1)[C@@H](C)CN([C@H](C)CO)S2(=O)=O
34	-7	O=C1N[C@@H](Cc2ccccc2)COC(=O)[C@@H](Cc2ccc(F)cc2)CC/C=C/C[C@@H]1CC(=O)N(CCO)Cc1ccccc1
6[16.7 µM]	-29	C[C@@H]1CN([C@H](C)CO)C(=O)Cc2cc(NC(=O)Nc3ccc(C(F)(F)F)cc3)ccc2O[C@@H]1CN(C)C(=O)Nc1ccc(C(F)(F)F)cc1
-26[16.7 µM]	-5	C[C@@H]1CN([C@H](C)CO)S(=O)(=O)c2ccc(C#CC(C)(C)O)cc2O[C@H]1CN(C)CC1CCCC1
7[16.7 µM]	-5	O=C(C[C@@H]1CC[C@H](NC(=O)c2cccc(F)c2)[C@H](CO)O1)Nc1nccs1
-24[16.7 µM]	-5	O=S(=O)(N[C@H]1CC[C@@H](CCn2cc(-c3cccnc3)nn2)O[C@H]1CO)c1ccc(F)cc1
18[16.7 µM]	-19	CCC(=O)N[C@@H]1C=C[C@H](CC(=O)NCCN2CCCCC2)O[C@H]1CO
18[16.7 µM]	-11	C[C@@H]1CN([C@H](C)CO)S(=O)(=O)c2ccc(-c3ccncc3)cc2O[C@H]1CN(C)C(=O)Nc1ccc(F)cc1
16[16.7 µM]	3	CO[C@H]1CN(C)C(=O)c2ccc(NC(=O)C3CC3)cc2OC[C@H](C)N(CCc2ccccc2)C[C@H]1C
0[16.7 µM]	35	N#C[C@H]1[C@@H](c2ccc(C#CC3(O)CCCC3)cc2)[C@@H](CO)N1C(=O)C1CCC1
-14[16.7 µM]	9	C[C@@H]1CCCCO[C@H](CN(C)C(=O)Cc2ccccc2)[C@H](C)CN([C@H](C)CO)C(=O)c2cc(N(C)C)ccc2O1
-3[16.7 µM]	5	CCC(=O)N[C@@H]1CC[C@H](CC(=O)OC)O[C@@H]1CO
3[16.7 µM]	1	Cc1ccc(S(=O)(=O)N(C)C[C@H]2Oc3c(NC(=O)Nc4c(C)noc4C)cccc3C(=O)N([C@@H](C)CO)C[C@H]2C)cc1
-10[16.7 µM]	-7	C[C@@H]1CN([C@@H](C)CO)C(=O)c2cc(-c3cccnc3)cnc2O[C@@H]1CN(C)C(=O)C1CCCCC1
-7[16.7 µM]	2	COCC(=O)Nc1ccc2c(c1)C(=O)N(C)C[C@H](OC)[C@@H](C)CN(C(=O)CC1CC1)[C@@H](C)CO2
-4[16.7 µM]	10	C[C@@H]1CN([C@H](C)CO)C(=O)CCCn2cc(nn2)CO[C@H]1CN(C)Cc1ccc(Oc2ccccc2)cc1
57*[16.7 µM]	-6	CNC[C@H]1Oc2c(NC(=O)Nc3cccc4ccccc34)cccc2C(=O)N([C@H](C)CO)C[C@H]1C

Structural class: the entries above with a Cl atom (2)
Env fusion inh	Yeast UUG start	SMILES
6[16.7 µM]	2	O=C(C[C@H]1CC[C@@H](NC(=O)NC2CCCCC2)[C@H](CO)O1)NCc1ccc(Cl)cc1
-18[16.7 µM]	16	COc1ccc(NC(=O)N(C)C[C@@H]2Oc3ccc(NS(=O)(=O)c4ccc(Cl)cc4)cc3CC(=O)N([C@@H](C)CO)C[C@H]2C)cc1

Env fusion inh: hit marks shown above
Env fusion inh	Yeast UUG start	SMILES
57*[16.7 µM]	-6	CNC[C@H]1Oc2c(NC(=O)Nc3cccc4ccccc34)cccc2C(=O)N([C@H](C)CO)C[C@H]1C

Next part:
Env fusion inh	Yeast UUG start	SMILES
-15[16.7 µM]	4	COc1ccc(-c2ccc([C@@H]3[C@@H](C#N)N(C(=O)C4CCC4)[C@H]3CO)cc2)cc1
-10[16.7 µM]	-13	C[C@@H]1CN([C@@H](C)CO)C(=O)c2cc(-c3ccc(F)cc3)cnc2O[C@@H]1CN(C)C(=O)c1ccccn1
-13[16.7 µM]	7	CCCC#Cc1ccc2c(c1)O[C@@H](CN(C)C(=O)Nc1ccc(OC)cc1)[C@H](C)CN([C@H](C)CO)S2(=O)=O
-4[16.7 µM]	11	C[C@H](CO)N1C[C@H](C)[C@@H](CN(C)C(=O)c2ccccc2F)Oc2ncc(C#CC(C)(C)O)cc2C1=O
-7[16.7 µM]	13	O=C(Nc1ccccc1F)N[C@H]1CC[C@@H](CC(=O)N2CCCCC2)O[C@H]1CO
-68[16.7 µM]	-3	COc1ccc(NC(=O)N(C)C[C@@H]2Oc3ccc(NC(=O)Nc4ccc(C(F)(F)F)cc4)cc3C(=O)N([C@H](C)CO)C[C@H]2C)cc1
-56[16.7 µM]	-4	C[C@H](CO)N1C[C@H](C)[C@H](CN(C)Cc2ccc(Oc3ccccc3)cc2)Oc2c(NC(=O)NC3CCCCC3)cccc2C1=O
7[16.7 µM]	-9	C[C@@H]1CCCCO[C@@H](CN(C)Cc2ccncc2)[C@@H](C)CN([C@H](C)CO)C(=O)c2cc(NC(=O)Nc3ccc4c(c3)OCO4)ccc2O1
-11[16.7 µM]	-7	C[C@@H]1CN([C@H](C)CO)C(=O)Cc2cc(N(C)C)ccc2O[C@H]1CN(C)CC1CC1
7[16.7 µM]	-1	C[C@H](CO)N1C[C@H](C)[C@@H](CN(C)Cc2ccncc2)Oc2ccc(NS(C)(=O)=O)cc2CC1=O
-54[16.7 µM]	9	CC(C)NC(=O)Nc1ccc2c(c1)C(=O)N([C@H](C)CO)C[C@H](C)[C@H](CN(C)Cc1ccc(C(F)(F)F)cc1)OCCCC[C@H](C)O2
-7[16.7 µM]	-7	C[C@@H]1CN([C@@H](C)CO)C(=O)c2cc(N(C)C)ccc2O[C@@H](C)CCCCO[C@@H]1CN(C)C(=O)NC1CCCCC1
-1[16.7 µM]	6	C[C@@H]1CCCCO[C@@H](CN(C)S(=O)(=O)c2ccc(F)cc2)[C@H](C)CN([C@@H](C)CO)C(=O)c2cc(NS(C)(=O)=O)ccc2O1
7[16.7 µM]	6	COc1ccc(NC(=O)N(C)C[C@H]2Oc3ccc(NC(=O)Cc4cn(C)c5ccccc45)cc3C(=O)N([C@H](C)CO)C[C@H]2C)cc1
0[16.7 µM]	-11	COCCNC(=O)C[C@H]1CC[C@H](NS(=O)(=O)c2ccc(C)cc2)[C@@H](CO)O1
-11[16.7 µM]	-9	CNC[C@@H]1OCCCC[C@H](C)Oc2ccc(NC(=O)c3ccncc3)cc2C(=O)N([C@H](C)CO)C[C@@H]1C
3[16.7 µM]	-2	COc1ccc(NC(=O)Nc2ccc3c(c2)C(=O)N([C@@H](C)CO)C[C@H](C)[C@@H](CN(C)S(=O)(=O)c2cccs2)OCCCC[C@@H](C)O3)cc1
8[16.7 µM]	0	C[C@H]1CN([C@@H](C)CO)C(=O)Cc2cc(NC(=O)Cn3cnnn3)ccc2O[C@H]1CN(C)Cc1ccccc1
1[16.7 µM]	-9	C[C@@H]1CN([C@H](C)CO)C(=O)c2cc(NC(=O)CCC(F)(F)F)ccc2O[C@@H](C)CCCCO[C@H]1CN(C)C(=O)c1ccncc1
-13[16.7 µM]	27	CC(C)C#Cc1ccc2c(c1)O[C@H](CN(C)C)[C@@H](C)CN([C@@H](C)CO)S2(=O)=O
-29[16.7 µM]	-8	CC(=O)Nc1ccc2c(c1)C(=O)N(C)[C@H]1CC[C@@H](CC(=O)NCC3CCCCC3)O[C@H]1CO2
19[16.7 µM]	3	C[C@H]1CN([C@@H](C)CO)C(=O)c2cccc(NC(=O)c3cnccn3)c2O[C@H]1CN(C)Cc1ccccc1

From PubChem
